Screens as filed in PubChem.
VDR inhibitor: inhibitors of human vitamin D receptor. P11473. VDR-SRC2-3 peptide fluorescence polarization, 2 h. Potency, µM, for the others: max response, negative = inhibition, most hits filed as inhibitors. 400,000 compounds, 0.93% hits. AID 504847; active means well fitted inhibition curve with a large enough effect; inconclusive means small, poorly fitted or top-dose-only effect, or another doubt; inactive means no such curve, though single readings can be large or run the other way; further: series mostly up to about 120 µM
Target sequence (P11473 whole entry, looked up): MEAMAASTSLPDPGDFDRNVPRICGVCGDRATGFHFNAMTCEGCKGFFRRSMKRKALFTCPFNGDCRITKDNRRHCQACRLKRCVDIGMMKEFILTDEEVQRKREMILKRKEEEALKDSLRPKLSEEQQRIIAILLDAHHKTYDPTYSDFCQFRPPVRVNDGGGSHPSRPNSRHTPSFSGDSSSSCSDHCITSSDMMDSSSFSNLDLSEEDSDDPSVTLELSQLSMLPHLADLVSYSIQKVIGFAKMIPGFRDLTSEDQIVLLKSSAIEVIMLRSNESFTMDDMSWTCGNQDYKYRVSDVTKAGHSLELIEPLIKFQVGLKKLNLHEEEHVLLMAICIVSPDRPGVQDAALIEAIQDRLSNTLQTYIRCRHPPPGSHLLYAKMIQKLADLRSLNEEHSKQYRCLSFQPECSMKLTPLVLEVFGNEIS
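Reagent solutions, kept cold and dark, are dispensed first; compounds are then pinned in at 23 nl, plates briefly spun, and incubated 2 h at ambient temperature. Inhibition of VDR–SRC2-3 peptide binding is read by fluorescence polarization.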
* hit, by the source's call; ? = inconclusive; & = joins results of further samples. On the % scale 0 is the no-effect control and ±100 the full control effect; potency means the concentration at half of the fitted maximal effect. Some of the compounds tested; count on the stated rates, not on these rows.

SMILES | VDR inhibitor
CN(C(=O)c1ccc(S(=O)(=O)N(C)C)cc1)c1ccc2ccccc2c1 | -6.4%
CCOCCCNC(=O)C(c1ccc(C)cc1)N(Cc1cccs1)C(=O)c1ccc(NC(C)=O)cc1 (configuration not stated) | -20.7%
COc1cccc(C(=O)NC(C)C(c2cccs2)N2CCOCC2)c1 (configuration not stated) | -18.4%
COc1ccc(C2CC3CC(c4ccccc4)N2O3)cc1 (configuration not stated) | -2.7%
CCC(Sc1nc2cc(OC)c(OC)cc2c2nc(-c3ccccc3)nn12)C(=O)Nc1cccc(C)c1 (configuration not stated) | -0.8%
CCOc1cc(-c2n[nH]c(=S)n2Cc2ccccc2)ccc1OC(F)F | -13.1%
COc1ccccc1NC(=O)N1CCN(c2ccccn2)CC1 | -2.5%
O=C(O)C1CCCN(S(=O)(=O)c2ccccc2)C1 (configuration not stated) | 1.1%

Continued:
SMILES | VDR inhibitor
CSc1nnc2c3cc(F)ccc3n(Cc3ccccc3)c2n1 | -16.8%
O=C1CS/C(=C\[N+](=O)[O-])N1c1ccccc1 | 19.4%
Cc1cc(C(=O)OCC(=O)N2CC(C)OC(C)C2)c2ccccc2n1 (configuration not stated) | -10.1%
Clc1ccc(CSc2nnc(NC3=NCCCCC3)s2)cc1 | 13.1%
O=C(Nc1ccc(S(=O)(=O)N2CCCC2)cc1)c1cc(F)c(F)cc1Cl | 12.5%
O=c1c2ccccc2nc(SCc2cc(F)cc3c2OCOC3)n1Cc1ccco1 | 6.4%
O=C1CN(C(=O)COC(=O)c2cccnc2Cl)c2ccccc2N1 | -7.9%
CCOC(=O)c1c(NC(=O)CNCCO)sc(C)c1C | 5.2%

Next part
SMILES | VDR inhibitor
COc1ccc(N(CC(=O)NCc2ccc(F)cc2)S(=O)(=O)c2c(C)n[nH]c2C)cc1 | -8.8%&-2.5%
CCCCCCCCCCC(C)(C)C(=O)Nc1c(OC)cc(OC)cc1OC | 1.3%
COc1ccccc1NS(=O)(=O)c1cc(NC(=O)c2ccccc2[N+](=O)[O-])ccc1N1CCOCC1 | 16.9%
CCC(O)(c1ccccc1)C(CN1CCOCC1)c1ccccc1 (configuration not stated) | 10.9%
Oc1ccc(-c2nccc(-c3cccs3)n2)cc1 | -7.3%
O=C(CSCc1ccc(Cl)cc1)N/N=C/c1c(Cl)cccc1Cl | -13.5%
CCCCOC(=O)c1ccc(NC(=O)CSc2nncn2C)cc1 | 26.9%
COc1cccc2c1Oc1cc([N+](=O)[O-])cc(N(C)C(C)=O)c1C=C2 | -4.8%

New compounds follow.
SMILES | VDR inhibitor
CC(=O)OCC1=C(C(=O)O)N2C(=O)[C@@H](NC(=O)Cc3cccs3)[C@@H]2SC1 | -3.7%
COc1ccc(C(=O)c2c[nH]c(C(=O)NCCCn3ccnc3)c2)cc1 | 12.2%
CCOC(=O)N1CCc2c(sc3c2c(=O)n(-c2ccc(Cl)cc2)c(=O)n3Cc2cccc(OC)c2)C1 | 23.2%
O=C1C2CCC(C2)[C@@H]2CCCCN12 (some centres not stated) | -0.9%
Cc1ccc(-c2cc(N)n(-c3ccccc3)n2)cc1 | 0.5%
O=C(Nc1ccccc1C(=O)O)c1cc(S(=O)(=O)N2CCCCC2)c(Cl)cc1Cl | 0.6%
COc1ccccc1CCNC(=O)Cc1c(C)c2cc3c(C)coc3cc2oc1=O | 4.4%
O=c1[nH]c2ccc(NC(=S)Nc3ccccc3)cc2[nH]1 | -2.2%

Further entries follow:
SMILES | VDR inhibitor
CC1=C(C#N)C(c2ccoc2)C(C(=O)OCc2ccccc2)=C(N)S1 (configuration not stated) | -4.6%
O=C(c1cc(C(F)(F)F)cc(C(F)(F)F)c1)N1CCC2(CC1)CN(c1ccncc1)C2 | -10.1%
CCOC(=O)c1sc(=S)n(CC)c1NC(=O)CC | 1.6%
COc1ccccc1CNC(=O)Cc1csc2nc(-c3ccccc3)cn12 | 2.1%
O=C(NCc1cccc(Cl)c1)c1ccc(NC(=O)N2CC3CCCN3c3ccccc32)cc1 (configuration not stated) | 2.7%
CCN(C(=O)CCNC(=O)Cn1cnc2ccccc2c1=O)c1ccccc1F | 7.5%
CCOc1ccc(S(=O)(=O)NCCC(=O)N(C)Cc2ccc(C)o2)cc1 | -16.5%
O=C(Cn1cc2c(n1)CCCCC2)NCc1cccs1 | 6.7%

Remaining list, next part:
SMILES | VDR inhibitor
COc1cc(OC)cc(C(=O)Nc2ccc3oc(-c4ccccc4C)nc3c2)c1 | -3.2%
CC(C)(C)OC(=O)NCCCC[C@H](NC(=O)c1[nH]cnc1C(=O)N[C@@H](Cc1ccccc1)C(=O)OC(C)(C)C)C(=O)OC(C)(C)C | -7.7%
CC(Sc1nnc(-c2ccc(OC(F)F)cc2)o1)C(=O)NCC1CCCO1 (configuration not stated) | 0.7%
Cc1ccc(OCc2nc(-c3ccccn3)n[nH]2)cc1 | 1.5%
COC/C=C/C1=CC2=CC(=O)C(C)(OC(=O)CCC(=O)OC)C(=O)C2=CO1 (configuration not stated) | -22.5%
O=C(C1CCN(S(=O)(=O)c2ccc(Cl)s2)CC1)N1CCN(c2ccccc2)CC1 | 5.9%
Cc1ccc(-c2cccc(C3CC=CC4C3C(=O)N(Cc3ccccc3)C4c3ccc(C(F)(F)F)cc3)c2)cc1 (configuration not stated) | ?
CC(C)Cn1c(CN2CCCCC2C)nc2c1c(=O)n(C)c(=O)n2C (configuration not stated) | 8.1%

(list continues)
SMILES | VDR inhibitor
CCOC(=O)c1ccc(NC(=O)C(CC)Sc2nc3ccncc3[nH]2)cc1 (configuration not stated) | 16.9%
O=C(NCC1CCCN1S(=O)(=O)c1cccs1)C(=O)Nc1ccc(F)cc1F (configuration not stated) | -5.2%
CCCN1CCN(C(=S)Nc2ccc(S(N)(=O)=O)cc2)CC1 | -9.8%
Cc1cccc(Nc2nnc(SC3CCOC3=O)s2)c1C (configuration not stated) | -6.6%
CCN1C(=O)[C@H]2[C@@H](c3ccc(-c4ccc(Cl)c(Cl)c4)cc3)N3CCCC[C@@]3(C(=O)OC)[C@H]2C1=O | -6.8%
CCC(C)(C)NC(=O)CN(Cc1cccs1)C(=O)CCC(=O)Nc1nccs1 | 8.1%
COc1ccc(CCNC(=O)CN(c2ccc(OC)c(OC)c2)S(C)(=O)=O)cc1OC | -5.6%
CSc1ccc(NC(=O)C(C)N2CCN(C)CC2)cc1 (configuration not stated) | 23.6%

Further results.
SMILES | VDR inhibitor
COc1ccccc1C(=O)Nc1ccc(-c2nnn(CC(=O)N3CCN(C(=O)c4ccco4)CC3)n2)cc1 | -1.0%
O=S(=O)(Nc1cccc(-c2cn3cccnc3n2)c1)c1ccc(F)cc1 | 7.7%
COc1ccccc1Nc1nc(-c2sc(N)nc2C)cs1 | -27.0%
CC(c1ccccn1)C(C)(O)C(C)c1ccccn1 (configuration not stated) | -3.2%
Cn1c(=O)c(-c2ccccc2)nc2cnc(Nc3ccccc3)nc21 | -4.2%
Cc1cc(C)c(-c2csc(NC(=O)C3=COCCO3)n2)cc1C | -10.4%
Cc1ccc(NC(=O)COC(=O)c2cccnc2)c(C)c1 | -17.6%
COC(=O)c1sc(NC(=O)CN2CCN(c3cccc(Cl)c3)CC2)c(C(=O)OC)c1C | -14.3%

Retrieved by structure from the entries so far:
SMILES | VDR inhibitor
CC(c1ccccn1)C(C)(O)C(C)c1ccccn1 (configuration not stated) | -3.2%
COC(=O)c1sc(NC(=O)CN2CCN(c3cccc(Cl)c3)CC2)c(C(=O)OC)c1C | -14.3%

(next part)
SMILES | VDR inhibitor
Cc1ccc(S(=O)(=O)NNC(=O)c2sc3nc(C)cc(C)c3c2-n2cccc2)cc1 | 4.9%
CC(C)C[C@@H](CNCC(=O)[C@H](Cc1c[nH]c2ccccc12)NC(=O)c1[nH]cnc1C(=O)N[C@H](CN)CC(C)C)NC(=O)c1nc[nH]c1C(=O)N[C@@H](CC(=O)O)C(=O)O | -15.5%
COc1ccc(-c2cn(-c3ccccc3)c(=S)[nH]2)cc1OC | 0.1%
OCCN1CCN(c2cc(C(F)(F)F)nc3c(F)cccc23)CC1 | -16.4%
CC(=O)NCCNc1ncnc2ccc(-c3ccoc3)cc12 | 39.8µM*
Cc1ccc(OCC(=O)N(Cc2ccccc2)C2CCS(=O)(=O)C2)c([N+](=O)[O-])n1 (configuration not stated) | -8.9%
COc1ccc(Nc2nc(NCCCN3CCOCC3)nc(N)c2[N+](=O)[O-])cc1 | -3.5%
COC(=O)c1ccc(OCC(=O)c2ccccc2)cc1 | -7.7%

(list continues)
SMILES | VDR inhibitor
CCOC(=O)CSc1nc(-c2ccncc2)ccc1C#N | -16.9%
CCCCOC(=O)Cn1c(=O)n(CC(=O)OCCCC)c2ccccc21 | 0.3%
CC(=O)c1ccc(OCc2cc(C(=O)N(C)Cc3ccon3)no2)cc1 | -6.2%
CCCCC/C=C\C/C=C\CC1OC1C/C=C\CCCC(=O)O (configuration not stated) | 0.6%&2.5%
O=C(NNC(=O)C1CCCN(c2ncccn2)C1)c1ccncc1 (configuration not stated) | -9.6%
COC(=O)c1ccccc1NC(=O)Nc1ccc(C(=O)N2CCCC2)cc1 | 2.2%
CCc1nc(SCC(=O)c2ccccc2)c2ccccc2n1 | ?
CCOC(=O)c1sc(NCc2ccco2)c(-c2nc3ccccc3s2)c1N | -0.3%

The listing continues.
SMILES | VDR inhibitor
COc1ccc2sc(N(Cc3cccnc3)C(=O)C3CCCCC3)nc2c1 | 5.5%
CCN(CC)CC(C)CNC(=O)C1(O)c2ccccc2NC(=O)N1c1ccc(Cl)c(Cl)c1 (configuration not stated) | 5.7%
Cc1sc2cc(-c3cccc([N+](=O)[O-])c3)c(-c3cccc([N+](=O)[O-])c3)c[n+]2c1C | -4.7%
CN(C)c1ccc(C(=O)NCc2ccc3c(c2)OCO3)cc1 | 2.7%
Cc1cc(-c2cccc([N+](=O)[O-])c2)nc2ccccc12 | -7.1%
CC1CC(C)CN(C(=O)COC(=O)c2ccc3c(c2)C(=O)N(Cc2ccco2)C3=O)C1 (configuration not stated) | -7.7%
Clc1ccc(SCCn2cncn2)cc1 | 11.6%
CN(CC(=O)NCc1ccccn1)S(=O)(=O)c1cc(Cl)ccc1Cl | -10.0%

(cont.)
SMILES | VDR inhibitor
Cc1oc2ncn(CC(C)C)c(=O)c2c1C(=O)NCCc1ccc(Cl)cc1 | 6.7%
O=C(COC(=O)c1ccc(Cl)nc1)NCCC1=CCCCC1 | 0.4%
COCC(C)n1c(C)cc(C(=O)CN2C(=O)NC3(CCCCC3C)C2=O)c1C (configuration not stated) | -2.8%
CCc1ccc(NC(=O)CCc2nc3cccnc3n2Cc2ccc(OC)cc2)cc1 | 10.9%
O=C1CN(C(=O)c2ccccn2)c2ccccc2N1 | -10.3%
COc1ccccc1NC(=O)C1CCN(C(=O)C2CC(=O)N(c3ccc(C)cc3)C2)CC1 (configuration not stated) | -5.0%
CCCOc1ccc(C(=O)Nc2cc3nn(-c4ccc(CC)cc4)nc3cc2C)cc1 | -16.5%
CCn1c(=O)c2cc(C(=O)NCCCN3CCN(C)CC3)sc2c2ccccc21 | -3.2%

Continuation:
SMILES | VDR inhibitor
Cn1cccc1Cc1nnc(SCC(=O)Nc2ccc(F)cc2)n1CCc1ccccc1 | -20.5%
O=C1c2ccccc2C(=O)C1(c1ccccc1)N1CCN(c2cccc(Cl)c2)CC1 | 5.1%
O=C(O)C1(c2ccccc2)CCN(S(=O)(=O)c2ccccc2)CC1 | -10.1%
CCOc1ccc(NC(=O)CN(C)C(=O)c2ccc(N3CCCCCC3)c([N+](=O)[O-])c2)cc1OCC | 22.1%
O=C(C1CCCO1)N1CCN(C(=S)Nc2ccccc2)CC1 (configuration not stated) | -10.2%
COc1cc(C2=N/C(=C\c3ccccc3)C(=O)O2)cc(OC)c1OC | ?
COc1ccccc1N1N=C(c2cccs2)CC1c1ccccc1 (configuration not stated) | -21.9%
Cc1nc2ccc(NC(=O)c3cc(S(=O)(=O)N(C)c4ccccc4)ccc3Cl)cc2s1 | -14.3%

The results go on.
SMILES | VDR inhibitor
COc1ccc(C(CNC(=O)c2cccc(S(=O)(=O)N(C)c3ccccc3)c2)N2CCCC2)cc1 (configuration not stated) | 5.0%
CC(=O)N(C)c1ccc(C(O)(C(F)(F)F)C(F)(F)F)cc1 | -12.4%
CSC(=NC#N)N1CCN(c2ccc(Cl)cc2)CC1 | -3.3%
CC(C)c1ccc(NC(=S)NNc2ccc(Cl)c(C(=O)O)c2)cc1 | 39.8µM*
CC(C)(C)NC(=O)COC(=O)c1ccc2c(c1)C(=O)N(Cc1ccco1)C2=O | -3.6%
OCCNc1nc(N2CCCC2)nc(N2CCCC2)n1 | 18.3%
c1ccc(-n2ncc3c(N4CCN(c5ccccn5)CC4)nc(N4CCCCCC4)nc32)cc1 | -3.6%
CC(C)C(=O)Nc1nnc(-c2ccccc2)o1 | 7.1%

The list goes on:
SMILES | VDR inhibitor
CS(=O)(=O)N(CC(=O)N1CCc2ccccc2C1)c1ccc(Br)cc1 | 4.5%
CCCNS(=O)(=O)c1ccc(OCC(=O)N2CCCC2)cc1 | -3.7%
O=C(Nc1cccnc1Cl)c1cc(-c2ccc(F)cc2)on1 | 18.2%
O=c1c(NCCc2ccccc2)c(-c2ccccc2)c1=O | -17.8%
COC(=O)c1c(N2C(=O)[C@H]3[C@@H](C2=O)[C@]2(C(=O)Nc4c2ccc(C)c4C)N2CCC[C@@H]32)sc(C)c1C | 11.3%
Cc1ccc(CNC(=O)c2cncc(Br)c2)cc1 | -17.0%
Cc1ccc2nc(C3CCCN(C(=S)Nc4ccccc4C)C3)[nH]c2c1 (configuration not stated) | 6.6%
COc1ccc([C@H]2CC(=O)C=C(c3cc(OC)ccc3OC)C2)cc1 | -14.4%

Other compounds:
SMILES | VDR inhibitor
Cc1occc1-c1nnc(SCC(=O)NCc2cccs2)n1-c1ccc(F)cc1 | -9.9%
Cc1noc(C)c1C(=O)Nc1ccc(S(=O)(=O)N2CCCCC2)cc1 | -0.1%
COc1ccc(-c2cc(C)nc3c(-c4ccccc4)cnn23)cc1 | -4.1%
COc1ccccc1NC(=O)c1ccc(COc2ccccc2Br)o1 | 3.8%
